Source: PubChem
Mtb bLac sens = beta-lactam sensitization of Mtb H37Rv, H37Rv; actives 0.27% (n = 330,000); inhibition, % at 25 µM; AID 434955, 2010; M. tuberculosis H37Rv growth with meropenem, percent inhibition; hits of this screen are not shown here;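 active = about 74% or more and at least 40 points above the plate without the antibiotic, then above 30% in a dose series; inconclusive = first-round hits that could not be retested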;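 note: growth measured after seven days incubation then overnight dye step; 0% = bacteria only wells and 100% = bacteria with antibiotic; twin plates without the antibiotic show which effects depend on it; some results filed as inactive read as strong as hits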
RecA intein inh = Mtb RecA intein splicing inhibitors, primary screen, biochemical, fluorescence, HTS; Protein RecA (Mycobacterium tuberculosis (strain ATCC 25618 / H37Rv)), P9WHJ3; cell-free RecA intein splicing; inhibition, %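 (about 9 µM by stock and volumes)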; actives 0.75% (n = 290,000); AID 2221, 2009; in the data active = inhibition above about 30%; inconclusive = no clear call, values can overlap the other calls;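 note: 0% = vehicle wells and 100% = reference inhibitor control wells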
Target sequence (P9WHJ3 whole entry, looked up): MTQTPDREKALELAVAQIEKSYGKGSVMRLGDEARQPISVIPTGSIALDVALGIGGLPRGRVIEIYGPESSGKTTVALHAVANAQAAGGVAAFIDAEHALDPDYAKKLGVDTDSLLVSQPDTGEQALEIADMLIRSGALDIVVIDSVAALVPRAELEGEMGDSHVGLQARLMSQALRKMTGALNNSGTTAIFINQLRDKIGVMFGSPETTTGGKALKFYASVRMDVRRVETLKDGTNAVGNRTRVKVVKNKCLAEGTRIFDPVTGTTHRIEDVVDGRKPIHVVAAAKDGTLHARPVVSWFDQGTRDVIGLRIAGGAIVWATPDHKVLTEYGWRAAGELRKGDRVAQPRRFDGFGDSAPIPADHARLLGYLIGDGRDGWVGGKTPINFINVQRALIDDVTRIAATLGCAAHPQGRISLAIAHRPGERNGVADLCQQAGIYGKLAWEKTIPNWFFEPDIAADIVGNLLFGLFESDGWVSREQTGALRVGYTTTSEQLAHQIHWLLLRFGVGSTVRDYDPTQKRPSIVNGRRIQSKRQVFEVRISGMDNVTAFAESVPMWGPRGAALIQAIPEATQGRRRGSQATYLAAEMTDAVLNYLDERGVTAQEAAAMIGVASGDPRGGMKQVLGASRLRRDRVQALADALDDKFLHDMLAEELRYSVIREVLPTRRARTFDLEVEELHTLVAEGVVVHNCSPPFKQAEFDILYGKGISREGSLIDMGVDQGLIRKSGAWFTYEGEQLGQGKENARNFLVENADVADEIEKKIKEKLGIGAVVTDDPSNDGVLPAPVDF
Mtb growth = M. tuberculosis H37Rv growth inhibitors, H37Rv strain (AID 1626) | M. tuberculosis H37Rv growth inhibition; higher % means a stronger effect | one-dose inhibition, % at 10 µM; IC50 in µM for titrated hits | actives 0.95% (n = 220,000);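 active = confirmed in a dose series; inconclusive = inhibition above 80% but not taken into the dose series; inactive = below 80% or under 30% at every dose of the series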;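 note: bacteria incubated seven days before Alamar blue readout; 0% = bacteria only wells and 100% = bacteria with antibiotic wells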
YopH inh = YopH tyrosine phosphatase inhibitors, primary screen, biochemical, fluorescence Ex485/Em525; actives 0.16% (n = 140,000); YopH tyrosine phosphatase [Yersinia enterocolitica]; inhibition, %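 (about 10 µM by stock and volumes)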;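 active = inhibition of 50% or more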;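 note: controls were vehicle for no effect and minimum signal wells for full effect; inactives centre near -20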
Arbovirus anti = antivirals against arbovirus infection, primary screen, cell-based, full library, 10K replicate subset | arbovirus infection cell-based antiviral screen | inhibition, % at 10 µM | actives 0.37% (n = 200,000) | AID 1251, 2008;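 active = inhibition from about 30%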;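 note: bluetongue infection of BSR cells; cell survival read as ATP light after 72 h; 0% = infected wells without compound and 100% = uninfected wells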
Arbovirus anti repeat = second read-out of Arbovirus anti, no call of its own (marks repeat the call); inhibition, %; measured here: 10K subset replicate screen; many hits read low in the repeat;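 first of two repeat runs on a subset; 0% = infected and 100% = uninfected wells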
The depositor's hits bear a star.

Screening CC(=O)N1c2ccc(S(=O)(=O)N3CCC(C(=O)NC4CCCCC4C)CC3)cc2CC1C (centres undefined) returned Mtb bLac sens -2.4 and RecA intein inh -2.0.
`O=C(CSc1nnc(COc2ccccc2Cl)o1)NC(=O)NC1CCCC1` gave Mtb bLac sens 16.0, RecA intein inh 0.5, Mtb growth 5.1%, YopH inh -37.2 and Arbovirus anti 2.6.
`CCOC(=O)c1cnn(CCOC(=O)c2ccc(OC)cc2)c1NC(=O)c1ccc(OC)cc1` gave Mtb bLac sens 3.8, RecA intein inh 0.6, Mtb growth 0.9%, YopH inh -20.3 and Arbovirus anti 16.9.
Screening COc1ccc(N(CC(=O)N/N=C(\C)c2ccc(OC)c(OC)c2)S(=O)(=O)c2ccccc2)cc1 returned Mtb bLac sens -2.6 and RecA intein inh 2.4.
`O=C(Nc1cc(S(=O)(=O)N2CCCCC2)ccc1N1CCOCC1)c1cc(=O)[nH]c2ccccc12` gave Mtb bLac sens 1.4, RecA intein inh -2.2 and Mtb growth -1.6%.
CC(=O)Nc1ncc(Cc2cccc(Cl)c2)s1 was read as Mtb bLac sens -9.7, RecA intein inh 0.2, Mtb growth 3.1% and Arbovirus anti -19.5.
For COc1ccccc1OCc1nnc(SCCN2CCOCC2)o1 the results were Mtb bLac sens -6.4, RecA intein inh -1.2, Mtb growth -3.9%, YopH inh -11.7 and Arbovirus anti 0.3.
Screening O=C(/C=C/c1ccccc1)Nc1nnc(-c2ccco2)o1 returned Mtb bLac sens 61.9, RecA intein inh -4.7, Mtb growth inconclusive and Arbovirus anti -2.9.
Screening COc1ccccc1C(=O)Nc1cccc(-c2cn3ccsc3n2)c1 returned Mtb growth 2.1%, YopH inh 3.9 and Arbovirus anti -10.9.
`COc1ccccc1C(=O)Nc1ccc2oc(-c3ccc(F)cc3)nc2c1` gave Mtb bLac sens 4.6, RecA intein inh -0.7, Mtb growth -0.6%, YopH inh -13.6, Arbovirus anti -3.1 and Arbovirus anti repeat -4.4.
`COc1ccc(C(=O)NNC(=O)COc2ccc(Cl)cc2C)cc1S(=O)(=O)N1CCOCC1` gave Mtb bLac sens 1.9 and RecA intein inh -0.6.
O=C(OC(C(=O)NCc1cccs1)c1ccc(F)cc1)c1ccco1 (centres undefined) was read as Mtb bLac sens -4.7, RecA intein inh -2.3, Mtb growth 2.1%, YopH inh -22.0 and Arbovirus anti 1.2.
For COc1cccc(N2C(=O)CN(Cc3ccc(OC)c(OC)c3)C2=S)c1 the results were Mtb bLac sens -0.7 and RecA intein inh 0.0.
CC(C)Oc1cccc(C(=O)Nc2ccc(N3CCN(S(C)(=O)=O)CC3)cc2)c1 was read as Mtb bLac sens -3.1, Mtb growth -8.8%, YopH inh -23.2 and Arbovirus anti -0.4.
N/C(=N\OC(=O)/C=C/c1ccccc1)c1ccc(Cl)cc1 was read as Mtb bLac sens 3.8, RecA intein inh 0.2 and Mtb growth 1.4%.
For CCOc1ccccc1CNC(=O)c1c([N+](=O)[O-])c(C)nn1C the results were Mtb bLac sens -1.5, RecA intein inh 0.6, Mtb growth 2.7%, YopH inh -37.4 and Arbovirus anti -5.1.
`Cc1ccc2nc(N(CCCN(C)C)C(=O)c3ccc(S(=O)(=O)N4CCc5ccccc5C4)cc3)sc2c1` gave Mtb bLac sens 89.6 and RecA intein inh -2.4.
`COc1ccc(N2CCN(C(=S)Nc3ccc(C)cc3)CC2)cc1` gave Mtb bLac sens -6.9, RecA intein inh -1.6, Mtb growth -1.7% and Arbovirus anti 1.8.
For Cn1c(=O)c2c(nc(CN3CCCCC3)n2CCCc2ccccc2)n(C)c1=O the results were Mtb bLac sens -1.9, RecA intein inh -1.1, Mtb growth -11.1% and YopH inh -6.6.
Screening Cc1c(NC(=S)NC(=O)c2cccc(Br)c2)c(=O)n(-c2ccccc2)n1C returned Mtb bLac sens -5.7 and RecA intein inh -4.5.
For CCCCn1c(O)c(/C=N/N2CCOCC2)c(=O)[nH]c1=S the results were Mtb bLac sens 2.6, RecA intein inh -3.0 and Mtb growth -11.1%.
COC(=O)c1sc(NC(=O)COc2ccc(OC)cc2)nc1C was read as Mtb bLac sens -0.1, RecA intein inh -4.4, Mtb growth -3.1% and YopH inh -7.5.
Nc1nonc1NC(=O)CSc1ncccc1C(=O)O was read as Mtb bLac sens 9.7, RecA intein inh 4.1, Mtb growth 11.8%, YopH inh -8.1 and Arbovirus anti -2.0.
N#Cc1cc2sc3nc4ccccc4n3c2cc1C#N was read as RecA intein inh 1.2, Mtb growth -9.4%, YopH inh -21.9 and Arbovirus anti 9.3.
Screening CC(C)[N+](C)(C)CC(O)CN(c1ccccc1)c1ccccc1 (centres undefined) returned Mtb bLac sens -7.2, RecA intein inh 0.0, Mtb growth 0.1% and Arbovirus anti 0.9.
For CCOC(=O)CCCNC(=O)CN1CCC(c2nc3ccccc3s2)CC1 the results were Mtb bLac sens 1.6 and RecA intein inh -1.3.
`O=C(O)CCCN1C(=O)c2ccc(C(=O)c3cccc([N+](=O)[O-])c3)cc2C1=O` gave Mtb bLac sens -7.1, RecA intein inh 3.7, Mtb growth 3.1% and Arbovirus anti 8.1.
For NC(N)=N/N=C/c1ccc(OS(=O)(=O)c2ccccc2)cc1 the results were Mtb bLac sens 3.1, RecA intein inh 0.4, Mtb growth 8.9% and Arbovirus anti -18.1.
Cc1ccc(CN2CCN(Cc3nc4ccccc4nc3C)CC2CCO)cc1 (centres undefined) was read as Mtb bLac sens -11.2, RecA intein inh -2.0 and Mtb growth -4.4%.
`Clc1ccc(-c2nnc3sc(Cc4cccs4)nn23)cc1` gave Mtb bLac sens 73.6, RecA intein inh -1.9, Mtb growth 19.6µM*, YopH inh -23.9 and Arbovirus anti 3.6.
`COc1ccc(/C=N/NC(=O)c2cccc([N+](=O)[O-])c2)cc1OC(=O)c1ccc(C)cc1` gave Mtb bLac sens -0.1, RecA intein inh -0.7, Mtb growth -11.7%, YopH inh -37.9 and Arbovirus anti 9.5.
For O=[N+]([O-])c1nn(-c2ccc3c(c2)OCCO3)n(O)c1=NC1CCCCC1 the results were Mtb bLac sens 86.7, RecA intein inh 3.5, Mtb growth -0.6%, YopH inh 5.5 and Arbovirus anti -19.3.
Screening CCCCCC(=O)Nc1ccc2oc(-c3cncc(Br)c3)nc2c1 returned Mtb bLac sens 7.4, RecA intein inh -2.5, Mtb growth 0.0%, YopH inh 2.0 and Arbovirus anti -1.1.
For C=CCn1c(COc2ccccc2)nnc1SCC(=O)C(C)(C)C the results were Mtb bLac sens -9.8, RecA intein inh 2.6, Mtb growth 7.2%, YopH inh -0.9 and Arbovirus anti 5.4.
`O=C(NCc1ccco1)C1Cc2ccccc2CN1C(=O)c1ccco1` (centres undefined) gave Mtb bLac sens 1.7, RecA intein inh 0.2, Mtb growth -3.0% and Arbovirus anti -3.0.
Screening CCc1ccc2[nH]c(=O)c(CN(CCN(C)C)C(=S)NCc3ccco3)cc2c1 returned Mtb bLac sens 3.4, RecA intein inh -1.3, Mtb growth -5.3% and Arbovirus anti -12.2.
COCC1CCN(C(=O)CCc2nnc(C3(c4ccc(Cl)cc4)CCC3)o2)CC1 was read as Mtb bLac sens inconclusive and RecA intein inh 2.9.
`CC1CCc2[nH]c3ccc(C(=O)O)cc3c2C1` (centres undefined) gave Mtb bLac sens 4.6 and RecA intein inh -21.1.
Screening COc1ccc(C2CC(=O)c3sc(N)nc3C2)cc1 (centres undefined) returned Mtb bLac sens -0.4, RecA intein inh 0.1, Mtb growth 5.3%, YopH inh -40.8 and Arbovirus anti 2.0.
Screening O=C(N1CCCC1)N1CCN(S(=O)(=O)c2ccccc2)CC1 returned Mtb bLac sens -6.8 and RecA intein inh -2.3.
`COC(=O)c1c(NC(=O)COC(=O)CCNS(=O)(=O)c2ccc(NC(C)=O)cc2)sc(C)c1C` gave Mtb bLac sens 2.7 and RecA intein inh -1.5.
O=S(=O)(c1ccc(Cl)cc1)N1CCC(O)(c2cccnc2)CC1 was read as Mtb bLac sens 8.3, RecA intein inh 1.1, Mtb growth 0.6%, YopH inh -32.6 and Arbovirus anti -2.6.
`COCCNC(=O)C(c1ccc(F)cc1)N(CC1CCCO1)C(=O)CCC(=O)Nc1ccccn1` (centres undefined) gave Mtb growth -3.5%, YopH inh -33.4 and Arbovirus anti 7.8.
Screening O=C(Nc1cnn(C23CC4CC(CC(C4)C2)C3)c1)c1cc(-c2ccccc2)on1 returned Mtb bLac sens -2.7, RecA intein inh -2.6, Mtb growth -4.3%, YopH inh -19.4 and Arbovirus anti -7.3.
For CCC1=NN2C(=N)/C(=C\c3cccn3-c3cccc(Cl)c3)C(=O)N=C2S1 the results were Mtb bLac sens 23.2, RecA intein inh 4.0, Mtb growth 13.5% and Arbovirus anti 23.4.
O=C(CN(c1ccccc1)S(=O)(=O)c1ccccc1)N/N=C/c1ccco1 was read as Mtb bLac sens 8.1, RecA intein inh 1.6, Mtb growth -2.3%, YopH inh -16.7 and Arbovirus anti -6.1.
O=[N+]([O-])c1ccccc1C1Nc2cccc3cccc(c23)N1 was read as Mtb bLac sens -2.1, RecA intein inh 2.6, Mtb growth -5.0%, YopH inh 15.8 and Arbovirus anti 0.1.
For CCOC(=O)c1cn(CC2CC2)c2cc(F)c(F)cc2c1=O the results were Mtb bLac sens 4.9, RecA intein inh -3.8, Mtb growth -8.8% and Arbovirus anti 1.1.
For Clc1cccc(Cl)c1COc1ccccc1CNn1cnnc1 the results were Mtb bLac sens 15.4, Mtb growth 0.0% and Arbovirus anti -8.3.
CCOCCCNS(=O)(=O)c1ccc(NC(=O)C2CC(=O)N(c3ccc(C)cc3)C2)cc1 (centres undefined) was read as Mtb bLac sens 1.5, RecA intein inh -0.8, Mtb growth 0.9% and Arbovirus anti 6.5.
`Cc1cccc(Cc2ncc(C(F)(F)F)cc2Cl)c1` gave Mtb bLac sens -1.2 and RecA intein inh 0.2.
`COc1ccc(NC(=O)c2cccc(NC(=O)C(C)C)c2)c([N+](=O)[O-])c1` gave Mtb bLac sens -2.2, RecA intein inh 5.7, Mtb growth 9.0%, YopH inh -14.7 and Arbovirus anti 1.6.
`CCOC(=O)c1cnn(-c2ccc(F)cc2)c1N` gave Mtb bLac sens 5.0, RecA intein inh -0.1, Mtb growth -1.2% and Arbovirus anti -1.2.
`CCCn1c(=N)c(S(=O)(=O)c2ccccc2)cc2c(=O)n3ccccc3nc21` gave Mtb bLac sens -1.8, RecA intein inh inactive and Mtb growth 9.4%.
For COC(=O)CC1(C(=O)OC)Oc2ccc(Br)cc2C(=O)N1c1cccc(Cl)c1Cl (centres undefined) the results were Mtb bLac sens -8.0 and Mtb growth -4.8%.
Screening CCOC(=O)c1c(CN2CCCCC2)n(C)c2ccc(OC)c(S(=O)(=O)c3ccccc3)c12 returned Mtb bLac sens -1.5, RecA intein inh -4.7, Mtb growth -9.0%, YopH inh 0.7, Arbovirus anti 0.7 and Arbovirus anti repeat -3.7.
CC(C)(C)Cc1nnc(NC(=O)c2ccco2)s1 was read as Mtb bLac sens -3.4 and RecA intein inh 0.4.
`CN(C(=O)C1CCOC1)c1nnc(-c2ccccn2)s1` (centres undefined) gave Mtb bLac sens 2.6, RecA intein inh -1.0, Mtb growth -9.2%, YopH inh 4.4 and Arbovirus anti 1.1.
Screening N/C(=N\OC(=O)/C=C/c1ccccc1Cl)c1cccnc1 returned Mtb bLac sens 7.0, RecA intein inh 1.7 and Mtb growth 1.4%.

Grouped by structure, the entries above with a furan ring, fused or not (six)
Screening O=C(/C=C/c1ccccc1)Nc1nnc(-c2ccco2)o1 returned Mtb bLac sens 61.9, RecA intein inh -4.7, Mtb growth inconclusive and Arbovirus anti -2.9.
O=C(OC(C(=O)NCc1cccs1)c1ccc(F)cc1)c1ccco1 (centres undefined) was read as Mtb bLac sens -4.7, RecA intein inh -2.3, Mtb growth 2.1%, YopH inh -22.0 and Arbovirus anti 1.2.
`O=C(NCc1ccco1)C1Cc2ccccc2CN1C(=O)c1ccco1` (centres undefined) gave Mtb bLac sens 1.7, RecA intein inh 0.2, Mtb growth -3.0% and Arbovirus anti -3.0.
Screening CCc1ccc2[nH]c(=O)c(CN(CCN(C)C)C(=S)NCc3ccco3)cc2c1 returned Mtb bLac sens 3.4, RecA intein inh -1.3, Mtb growth -5.3% and Arbovirus anti -12.2.
O=C(CN(c1ccccc1)S(=O)(=O)c1ccccc1)N/N=C/c1ccco1 was read as Mtb bLac sens 8.1, RecA intein inh 1.6, Mtb growth -2.3%, YopH inh -16.7 and Arbovirus anti -6.1.
CC(C)(C)Cc1nnc(NC(=O)c2ccco2)s1 was read as Mtb bLac sens -3.4 and RecA intein inh 0.4.

The list is partial; rates above refer to the full screens.
